# GIV-Gai inh: inhibitors of GIV GBA-motif binding to rat Galpha-i3; 210,000 tested, 0.42% active; Galpha-i3/FITC-GIV peptide fluorescence polarization, 90 min; active compounds read low; scaled: aluminum fluoride 0%, vehicle 100%; P08753; percent of control (FP), % (test concentration not listed);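 active = replicate mean at 85% of control or lower, very high polarization wells dropped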;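 also: lower values mean more displacement of the GIV peptide from Galpha-i3; wells of about 15 µL received 100 nL stock; the first replicate is given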
# Target sequence (P08753 whole entry, looked up): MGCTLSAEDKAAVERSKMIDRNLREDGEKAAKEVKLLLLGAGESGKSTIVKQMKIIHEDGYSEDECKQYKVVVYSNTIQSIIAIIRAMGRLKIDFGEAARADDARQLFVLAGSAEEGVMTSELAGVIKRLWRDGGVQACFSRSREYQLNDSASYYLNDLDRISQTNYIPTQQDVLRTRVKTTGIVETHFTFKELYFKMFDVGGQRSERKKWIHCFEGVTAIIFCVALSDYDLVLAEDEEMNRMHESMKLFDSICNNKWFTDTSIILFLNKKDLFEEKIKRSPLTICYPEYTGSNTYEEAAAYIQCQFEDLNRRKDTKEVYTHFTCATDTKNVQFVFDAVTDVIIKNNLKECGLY
# Sa growth 42C: inhibitors of Staphylococcus aureus growth at 42 °C; S. aureus RN4220 growth, OD600, 20 h; active compounds read low; relative growth, % (no concentration beside the values); 170,000 tested, 0.53% active; AID 720641;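 active = growth at 42 °C up to 50% and 20 or more points under that at 30 °C, or under 10% at both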;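 also: 300 nL library stock went into each well; scaled to the means of positive and negative controls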
# HCMV NEC inh: cytomegalovirus nuclear egress complex inhibition. HTRF UL50-UL53 interaction, normalized percent inhibition. inhibition, % (concentration not given with the values). 190,000 tested, 0.15% active;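 active = both replicates at 50% or more, plus weaker picks with an unusually low signal ratio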;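 also: stock transfer was 100 nL into about 20 µL; 0% = negative control wells and 100% = wells with untagged competitor protein; inactives centre near -12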
# Sa growth 42C second temp: second read-out of Sa growth 42C, no call of its own (marks repeat the call); relative growth, %; measured here: growth at 30 °C;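 optical density after 20 h as mean of two plates; 100% = untreated growth and lower means inhibition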
# An asterisk follows results filed as active; nt = not tested or not shown; & = joins results of further samples.
SMILES,GIV-Gai inh,Sa growth 42C,Sa growth 42C second temp,HCMV NEC inh
CCN(C(=O)c1ccc(-n2cnnn2)cc1)C12CC3CC(CC(C3)C1)C2,nt,98,95,-10
C=CCC1C=C(C=C)CC(CC=C)N1 (stereo unspecified),107,99,77,-6
COc1ccc(-c2nnn(CC(=O)Nc3sc4c(c3C#N)CCCC4)n2)cc1,103,89,84,-17
C#CCSc1nc(-c2ccccc2)cc(-c2ccccc2)c1C#N,104,101,83,-32
O=C(OCC1CCCO1)c1ccc2c(c1)N(Cc1ccc(F)cc1Cl)C(=O)c1ccccc1S2(=O)=O (stereo unspecified),104,nt,nt,-6
NC(=O)CN1CCN(c2ccccn2)CC1,98,110,99,-29
COc1cccc(C(=O)Nc2ccc(NC(=O)c3ccc(C(C)(C)C)cc3)cc2)c1,99,97,95,-9
N#CC1(NC(=O)COC(=O)c2nccnc2N)CCCCC1,nt,91,99,-26
COc1ccc(S(=O)(=O)CC(C)(O)CS(=O)(=O)c2ccc(OC)cc2)cc1,103,90,84,nt
O=C(OCc1ccccc1)c1ccc(-c2nnn(Cc3ccccc3F)n2)cc1,110,99,99,14
Clc1ccc(-c2ccc(CNCc3ccc4c(c3)OCO4)o2)cc1,104,nt,nt,-21
O=C(CN1CCN(C(=O)c2ccccc2)CC1)NCC(F)(F)F,nt,110,92,4
CCn1cnc2c1c(=O)n(CC(=O)O)c(=O)n2Cc1ccccc1,nt,120,95,15
O=S(=O)(CC1CC1(Cl)Cl)c1ccccc1 (stereo unspecified),98,101,92,-4
Cc1c(C(=O)Nc2ccc3c(c2)OCO3)sc2ncnc(N3CCOCC3)c12,112,nt,nt,-3

# Sorted by value in Sa growth 42C (lowest first): three from the list above
SMILES | Sa growth 42C
N#CC1(NC(=O)COC(=O)c2nccnc2N)CCCCC1 | 91
COc1cccc(C(=O)Nc2ccc(NC(=O)c3ccc(C(C)(C)C)cc3)cc2)c1 | 97
NC(=O)CN1CCN(c2ccccn2)CC1 | 110

# The list goes on:
SMILES,GIV-Gai inh,Sa growth 42C,Sa growth 42C second temp,HCMV NEC inh
COc1ccc(C2=NN(S(=O)(=O)c3ccccc3)C(c3ccccc3OC)C2)cc1OC (stereo unspecified),105,nt,nt,-11
Cc1cc(N)n(C)c(=O)c1,nt,77,86,97
CCCCN(C)C(=O)Cn1cc2c(n1)CCCCC2,98,113,88,nt
O=C1NN=C2C3CC(CC12)C1=NNC(=O)C1C3 (stereo unspecified),100,109,80,2
Cc1ccc(CNC(=O)CSc2nc3c(sc4ccccc43)c(=O)n2CCCC(=O)NCCO)cc1,97,119,83,-41
CC1CCCCN1S(=O)(=O)c1ccc(C(=O)Nc2ccc3c(c2)C(=O)NC3=O)cc1 (stereo unspecified),100,101,94,-25
c1ccc(Nc2ncnc3cc(-c4ccccc4)sc23)cc1,107,113,95,22
CC(C)c1cc(C(=O)O)nc2ncnn12,102,87,83,nt
O=C(COc1ncnc2sccc12)NCc1ccccc1,nt,100,91,-11
CSC1(N2CCc3ccccc3C2)NN=C(C)C(=O)N1 (stereo unspecified),103,82,92,-10
Cc1ccc(Nc2cc(C)nc(-c3ccccc3O)n2)cc1,103,99,80,-11
O=C(Nc1ncn[nH]1)c1ccccc1CCc1ccccc1,105,130,91,-12
O=C(OCC1CCNCC1)c1ccc2c(c1)OCO2,102,108,82,-2
COc1ccc(NC(=O)Cn2c(C(=O)OC(C)C)cc3ccsc32)cc1,104,nt,nt,-27
Cc1ccc(Sc2ncccc2NC(=O)c2cccs2)cc1,105,110,87,2
CC(NC(=O)c1ccccc1)C(=O)OCn1nnc2ccccc2c1=O (stereo unspecified),nt,97,94,-12
COc1ccc(CNC(=O)C(CC(C)C)N2Cc3ccccc3C2=O)cc1 (stereo unspecified),105,112,102,nt
COc1cccc(C2=NOC(C(=O)NCc3ccccc3)C2)c1 (stereo unspecified),102,106,93,-4
CC1Oc2cc(S(=O)(=O)N3CCN(C(=O)Nc4ccccc4)CC3)c(Cl)cc2NC1=O (stereo unspecified),100,nt,nt,-7
CCOC(=O)C1CCN(c2nc(-c3cccc(C)c3)nc3ccccc23)CC1,107,nt,nt,9
c1ccc(CN2C3=NCCCN3c3ccccc32)cc1,102,103,76,nt
Cc1nnc(NC(=O)C(=O)c2cc(C)n(-c3ccc(C)c(C)c3)c2C)s1,99,89,82,4
CCOC(=O)N1CCC(NC(=O)Cn2c(=O)oc3ccccc32)CC1,103,102,98,-8
COc1cccc(CNC(=O)c2sc3nc(C)cc(C)c3c2-n2cccc2)c1OC,98,87,93,-2
Cc1cccc(N2CCN(c3ccc(C(=O)O)cc3NC(=O)c3cccc(Cl)c3)CC2C)c1 (stereo unspecified),102,53,33,nt
CCCCCN=Cc1sc2ccc(OCC)cc2c1O,104&110,86,76,-105&-47
O=C(CCS(=O)(=O)c1ccc(Br)s1)Nc1cccc(C(F)(F)F)c1,102,116,74,nt
CC(C)CNS(=O)(=O)c1ccc(CCC(=O)NCc2ccncc2)cc1,106,96,95,-12
O=C(O)CSc1ccccc1,nt,87,91,-7
CCOc1cc(C(=O)n2cc(C)cn2)cc(OCC)c1OCC,106,116,107,-6

# An excerpt from above in order of formula weight, highest first.
SMILES,GIV-Gai inh,Sa growth 42C,Sa growth 42C second temp,HCMV NEC inh
O=C(CCS(=O)(=O)c1ccc(Br)s1)Nc1cccc(C(F)(F)F)c1,102,116,74,nt
CC(C)CNS(=O)(=O)c1ccc(CCC(=O)NCc2ccncc2)cc1,106,96,95,-12
Cc1nnc(NC(=O)C(=O)c2cc(C)n(-c3ccc(C)c(C)c3)c2C)s1,99,89,82,4
COc1ccc(CNC(=O)C(CC(C)C)N2Cc3ccccc3C2=O)cc1 (stereo unspecified),105,112,102,nt
CC(NC(=O)c1ccccc1)C(=O)OCn1nnc2ccccc2c1=O (stereo unspecified),nt,97,94,-12
CCOC(=O)N1CCC(NC(=O)Cn2c(=O)oc3ccccc32)CC1,103,102,98,-8
O=C(O)CSc1ccccc1,nt,87,91,-7

# The list goes on.
SMILES,GIV-Gai inh,Sa growth 42C,Sa growth 42C second temp,HCMV NEC inh
O=C(O)c1[nH]c2ccccc2c1CNCc1ccccc1,104,90,83,nt
Cc1ccc2[nH]c(C)c(CC(=O)O)c2c1,98,85,87,-37
CCN(C(=O)CSc1ccc(Cl)cc1)C1CCCCC1,nt,93,102,-45
CCCNS(=O)(=O)c1cc2c3c(c1)CCC(=O)N3CCC2,101,89,80,-12
CCN(CC)CCNC(=O)c1cn(CC)c2ccc(S(=O)(=O)N(C)C3CCCCC3)cc2c1=O,101,92,84,-17
O=C(O)CS(=O)(=O)Cc1ccc(Cl)s1,nt,88,90,-14
Cc1c(Cl)cccc1-n1nnc(-c2nc(-c3ccc4c(c3)OCO4)no2)c1C,101,90,97,nt
COc1cccc(C2C3(C#N)C(N)=NC(OC)(OC)C23C#N)c1 (stereo unspecified),121,97,79,-23
O=C(CSc1nnc(-c2ccoc2)c(-c2ccoc2)n1)c1ccc(N2CCCC2=O)cc1,99,97,52,-57
Cc1c(C(=O)NCCC(C)C)sc2ncnc(N3CCOCC3)c12,100,84,85,nt
CC1CN(C(=O)COc2ccccc2Cl)c2ccccc2NC1=O (stereo unspecified),95,nt,nt,-13
Cc1cc(C)c(C(=O)NCCN2CCCCC2)c(C)c1,104,103,98,-21
O=S(=O)(c1ccc(Br)cc1)N1CCCc2ccccc21,nt,123,151,1
O=S(=O)(c1ccccc1F)N1CCN(c2nc3cc(Br)ccc3n3cccc23)CC1,102,nt,nt,-12
O=S(=O)(c1ccc(Cl)cc1)n1ccc(C(F)(F)F)n1,105,90,85,9
CC(C)NC(=O)C(c1ccccc1)N1Cc2ccccc2C1=O (stereo unspecified),104,103,96,nt
O=C(COc1ccc2oc3ccccc3c2c1)NCc1ccc2c(c1)OCO2,nt,104,82,-23
COc1ccc(CNC(=O)CSc2ncnc3nc[nH]c23)cc1,105,120,73,-7
CCOc1ccc(S(=O)(=O)NC(=O)N(CC)Cc2cc3ccccc3o2)cc1,106,177,103,-6
COC(=O)C1=C(C)NC(=O)NC1c1cn(-c2ccccc2)nc1-c1ccc(Br)cc1 (stereo unspecified),127&110,nt,nt,4
c1ccc2sc3c(-c4ccncc4)sc4ccccc4[nH]c-3nc2c1,104,101,82,nt
CCCn1c2ccccc2c2cnn(CC(=O)NCCCN3CCCC(C)C3)c(=O)c21 (stereo unspecified),105,100,90,-20
O=C(COC(=O)c1ccco1)c1ccc(OC(=O)c2ccccc2)cc1,106,115,106,14
CCCn1c(=O)n(CC(=O)O)c2ccccc21,nt,85,92,-16
FC(F)(F)c1nc2c(cnn2Cc2ccccc2)c2nnnn12,nt,77,96,-23
COC(=O)c1ccc(Cl)cc1NC(=O)Nc1nnc(N(C)C2CCCCC2)s1,99,113,99,-19
CCCSc1nc2c(c(=O)[nH]1)C(c1ccc(C(C)C)cc1)C(C(=O)OC)=C(C)N2 (stereo unspecified),94,nt,nt,-22
CCn1c(=O)cc(OCC(=O)NC2CCCC(C)C2C)c2ccccc21 (stereo unspecified),96,84,78,-18
CC(C)CNc1nc2c(N)ncnc2n1[C@H]1O[C@@H](CO)[C@H](O)[C@@H]1O,117,104,99,-11
C=CCn1c(=O)c2c(nc3n2CCN3c2ccc(OC)cc2)n(C)c1=O,101,nt,nt,-4
O=CN1CCN(C(=O)CC(c2ccccc2)c2cc(Br)ccc2O)CC1 (stereo unspecified),104,96,97,5
CCCC1=C(C(=O)OCC)C(c2ccccc2Cl)C(C#N)=C(SC)N1 (stereo unspecified),103,88,67,nt
COC(=O)c1scc(S(=O)(=O)Cc2ccco2)c1NN=C(C#N)C#N,105,86,65,-97
Cc1ccc(NC(=O)COC(=O)c2cncc(Br)c2)c(C)c1,nt,95,87,-24
CCN(CC)CCCNC(=O)CCCN1C(=O)c2cccnc2Oc2ccc(Cl)cc21,109,nt,nt,13
O=C(N/N=C/c1ccc(Cl)cc1)c1csc(CS(=O)(=O)Cc2ccco2)n1,101,93,91,-37
O=C(NCc1ccc(Cl)cc1)C1CCC(CNS(=O)(=O)c2ccccc2)CC1 (stereo unspecified),101,116,87,nt
CCC(=O)N1c2ccccc2CC1C(=O)NCCCN1CCN(c2ccc(OC)cc2)CC1 (stereo unspecified),103,107,91,nt
COc1ccccc1C(=O)Nc1ccc2oc(-c3cccc(Cl)c3Cl)nc2c1,105,93,91,-23
Cn1cccc1-c1cc2n(n1)CCC(=O)N2CC(=O)NCc1ccc(F)cc1,101,nt,nt,-2
COC(=O)c1ncn2c1C(=O)OC(COc1ccccc1)C2 (stereo unspecified),99,87,88,-19
CN(CC(=O)NCc1cccs1)S(=O)(=O)c1ccc2c(c1)n(C)c(=O)c(=O)n2C,105,98,90,4
Cn1c(=O)c2c(-c3ccc(Cl)cc3)n(CC3CCCO3)cc2n(C)c1=O (stereo unspecified),102,86,78,-13
COc1ccc(C)cc1NC(=O)COC(=O)c1sc2nc(C)[nH]c(=O)c2c1C,nt,87,98,-8
CN(C)c1ccc(-c2nc3cc(NC(=O)c4cccc(Br)c4)ccc3o2)cc1,102,nt,nt,-1
COc1ccc(NC(=O)Cn2c(SCc3ccccc3F)nc3ccncc32)c(OC)c1OC,100,96,77,4
CN(Cc1ccccc1)C(=O)c1cccc(NC(=O)c2nsc3ccccc23)c1,106,117,90,nt
Cc1ccc(NS(=O)(=O)c2ccc3[nH]c(=O)oc3c2)c(C)c1,104,96,93,nt
CCOc1ccc2oc(C(C)(C)C)c(C(=O)OC)c2c1,103,88,75,-15
COc1ccccc1N1CCN(S(=O)(=O)CCNC(=O)COc2ccccc2F)CC1,103,96,90,nt
COC(=O)CNC(=O)c1cccs1,nt,96,99,-7
O=C(NC1CCCCC1)c1ccc(Cn2cc(Br)cn2)o1,104,97,75,-21
Cc1ccc(-c2cc(C(=O)N3CCCC3)[nH]n2)cc1C,101,101,103,-3
CN(C)/C=C(\C#N)c1nnc(-c2ccccn2)n1C,121,100,87,nt
COc1ccc2nc(NN=c3c(=O)c4ccccc4c3=O)sc2c1,nt,95,86,-38
Cc1cc(C)cc(OC(=O)c2cc(-c3ccccc3)on2)c1,99,nt,nt,-17
CCN1CCN(CCCNC(=O)COc2ccc3c(c2)C(=O)CC(C)(C)O3)CC1,102,99,91,-1
Cn1c(SCCC(=O)O)nnc1-c1ccncc1,104,106,99,-4
CC(C)c1ccc(S(=O)(=O)c2nnn3c2nc(N2CCCC2)c2sccc23)cc1,101,103,82,nt
C=CCn1c(Cc2cccs2)nnc1SCC(=O)NC1CC1,100,95,100,6
# Following part.
SMILES,GIV-Gai inh,Sa growth 42C,Sa growth 42C second temp,HCMV NEC inh
CCOc1ccc(C(=O)NC(C(=O)N2CCN(C)CC2c2ccccc2)C(C)C)cc1 (stereo unspecified),nt,96,87,-3
COC(=O)c1cc(S(=O)(=O)N2CCn3c2nc2ccccc23)c[nH]1,101,89,97,-6
CCC(CC)C(=O)N1CCN(Cc2nc(-c3ccc(C)cc3)oc2C)CC1,107,nt,nt,-20
O=C(NC1CCCCC1)C1CCCN(C(=O)c2cc(-c3ccncc3)n[nH]2)C1 (stereo unspecified),104,nt,nt,11
COc1ccc(OC)c(/C=C(\C#N)c2nc(-c3ccc(F)cc3)cs2)c1,91,98,88,nt
COc1ccccc1NC(=O)c1cc2c(=O)oc3ccc(C)cc3c2s1,99,101,93,-28

# Compound activity deposited in PubChem by ICCB-Longwood Screening Facility, Harvard Medical School.
